# Screening data: PubChem, National Center for Advancing Translational Sciences (NCATS)
# Vaccinia mCherry: qHTS for Stage-Specific Inhibitors of Vaccinia Orthopoxvirus: mCherry Reporter Primary qHTS | Vaccinia virus mCherry reporter infection, fluorescence; about a quarter of the inactives have no number | Potency, µM (doses to about 36.5 µM), without a hit: at the top dose activity change, negative = inhibition, actives largely listed as inhibitors | actives 0.63% (n = 310,000); active = well fitted inhibition curve with a large enough effect; inconclusive = small, poorly fitted or top-dose-only effect; inactive = no such curve, though single readings can be large or run the other way; tested in A549 cells; further: nearly all actives have a fitted effect of over 35% in size; inactives centre near -10
# VACV Venus inh: qHTS for Stage-Specific Inhibitors of Vaccinia Orthopoxvirus: Venus Reporter Primary qHTS; Potency, µM (series often up to 36.5 µM), for inactives: top-dose activity change, negative = inhibition, usual class: inhibitors; actives 0.46% (n = 330,000); Vaccinia virus Venus reporter expression, fluorescence; active means well fitted inhibition curve with a large enough effect; inconclusive means small, poorly fitted or top-dose-only effect; inactive means no such curve, though single readings can be large or run the other way; tested in A549 cells; further: nearly all actives have a fitted effect of over 30% in size; inactives centre near -10
# Numbers without * were called inactive; i = inactive; ? = inconclusive; · = not tested or not shown; & = joins results of further samples; [ ] = remark or other dose. On the % scale 0 is the no-effect control and ±100 the full control effect; potency means the concentration at half of the fitted maximal effect. Outcome played no part in choosing rows; 0.86% or so of the library scored in one or more.
Molecule	Vaccinia mCherry	VACV Venus inh
Nc1nc2[nH]cc(CCc3ccc(C(=O)N[C@@H](CCC(=O)O)C(=O)O)cc3)c2c(=O)[nH]1	?	-12%
CC(C)Oc1ccc(CNC(=O)Cn2c(=O)c3cccn3c3cccnc32)cc1	-2%	-23%
CN(C)c1ccc(/C=C/c2cc3ccccc3c[n+]2C)cc1	-25%	-41%
COc1cccc(NC(=O)c2csc3c2CCCC3)c1	i	-7%
Cn1c(-c2ccc(=O)[nH]c2)nc2ccccc21	13%	-4%
COC(=O)C1=C(C)N(Cc2ccccc2)C(=O)N[C@H]1c1ccc(Br)cc1	i	-27%
COc1cc(O)ccc1-c1nc2cc(C)ccn2c1Nc1ccccc1C	-6%	-12%
CCN1CCN(c2ncc(C(=O)N3CCN(c4ccccc4OC)CC3)c3ccccc23)CC1	-7%	6%
CC(Sc1nnnn1-c1ccc(Cl)cc1)C(=O)NCC(=O)Nc1ccc(F)c(F)c1F (configuration not stated)	-16%	-16%
O=C(CSc1nc2ccccc2nc1Cc1ccccc1)N1CCCCC1	-18%	-8%
Cc1ccc(NC(=O)COC(=O)Cn2cnc3c2c(=O)n(C)c(=O)n3C)cc1Cl	i	-7%
CC(C)(C)C(=O)N1CCN(c2c(Cl)cccc2[N+](=O)[O-])CC1	-20%	-14%
O=C(Nc1ccc(N2CCCCC2)cc1)c1cccnc1Cl	i	-11%
Cc1noc(C)c1S(=O)(=O)N1CCCC(C(=O)N2CCN(C3CCCCC3)CC2)C1 (configuration not stated)	-21%	-11%
FC(F)(F)c1cccc(Cc2noc(CN3CCCC(CN4CCCC4)C3)n2)c1 (configuration not stated)	-7%	-27%
Cc1ccccc1S(=O)(=O)NC(=O)C1(C)CCN1C(=O)C(C)(C)c1ccccc1 (configuration not stated)	i	-17%
Cc1ccc(N2CCN(C(=O)c3ccc4c(Cl)c5c(nc4c3)CCCC5)CC2)c(C)c1	?	-27%
CCOc1ccc(N(CC(=O)NC2CCCC2)C(=O)CCC(=O)Nc2ccccn2)cc1	·	-15%
COc1ccc(CNC(=O)NC(C)(C)c2cccc(C(C)(C)NC(=O)NCc3ccc(OC)cc3)c2)cc1	-6%	-10%
COc1ccc(CN2CCNC(=O)C2CC(=O)NCc2cccc(C)n2)c(OC)c1 (configuration not stated)	11%	-5%
O=C(CC(NC(=O)C(F)(F)F)c1ccccc1)Nc1nnc(CCc2ccccc2)s1 (configuration not stated)	i	-5%
Cc1ccc(CN2CCC(n3nccc3NC(=O)c3ccc4c(c3)OCO4)CC2)o1	-1%	-6%
CCN(CC)C(=O)CSc1ncnc2c1nnn2-c1ccc(OC)cc1	-11%	-11%
CC(C)(C)NC(=O)c1cc([N+](=O)[O-])ccc1N1CCCCC1	-14%	-7%
O=C(COc1ccccc1C(=O)Nc1ccccc1)NCCc1ccccc1	-5%&-13%	1%&-30%
COc1ccc(OC)c(N2C(=O)CC(C(C)c3ccccc3)C2=O)c1 (configuration not stated)	·	-9%
CN1CCN(CCOCCOc2c(Cl)cc(Cl)cc2Cl)CC1	-22%	-13%
CCCCn1c(SCC(=O)N2CCCCC2C)nc2cc(S(N)(=O)=O)ccc21 (configuration not stated)	·	-17%
CSc1ccccc1NC(=O)c1cnc2scc(C)n2c1=O	-6%	-23%
CCCCOc1ccc(/C=N/NC(=O)C2CCCNC2=O)cc1 (configuration not stated)	-4%	-1%
CCOC(=O)c1ccc(NC(=O)C(C)N2C(=O)c3ccccc3C2=O)cc1 (configuration not stated)	i	-6%
O=C(NC(=S)NC1CCCCC1)c1ccc(Cl)cc1	-2%	-6%
Cc1ccc(C(C)C)c(OCCCn2c(=O)oc3ccccc32)c1	-7%	-4%
Cc1ccc(-c2noc(CCC(=O)N3CCCc4ccccc43)n2)cc1	i	-3%
COC(=O)Cn1cc(/C=C2\C(=O)NC(=O)N(c3ccc(OC)cc3)C2=O)c2ccccc21	i	-6%
COc1ccccc1CNC(=O)c1ccc(-c2ccccc2Cl)o1	?	?
COc1ccc([C@H]2CC(=O)C=C(c3ccc(Cl)c(C(F)(F)F)c3)C2)cc1OC	-29%	?
Cc1ccc2nc(Cl)c3cc(C(=O)N4CCCCC4C)sc3c2c1 (configuration not stated)	-8%	-10%
O=c1cc(O)c2c(=O)n(Cc3ccccc3)c3ccccc3c2o1	i	-4%
CCOc1ccc(NC(=O)C2C3C=CC4(CN(C(C(=O)OC)C(C)C)C(=O)C24)O3)cc1 (configuration not stated)	-5%	14%
O=C(OCC(=O)N1CCN(c2ccccc2)CC1)c1ccccc1OC(F)F	-13%	-16%
O=C(Cn1ncc2c([nH]c3ccccc32)c1=O)NCC1CCN(Cc2ccc(F)cc2)CC1	-1%&-12%	1%&-6%
COC(=O)C1CCN(C(=O)COC(=O)C2CCN(S(=O)(=O)c3ccc(C)c(C)c3)CC2)CC1	-15%	-6%
O=C(CSc1nc2ccccc2o1)NC1CCS(=O)(=O)C1 (configuration not stated)	-14%	2%
Cc1nc2c(C(=O)NCc3ccccc3Cl)cnn2c(C)c1Cc1c(F)cccc1Cl	-21%	-9%
C[C@]12C(=O)N(c3cccc(F)c3)C(=O)N1[C@H]1c3ccccc3OC[C@@H]1[C@H]2c1ccccc1	i	-12%
C[C@H](CO)N1C[C@H](C)[C@@H](CN(C)S(=O)(=O)c2ccccc2)Oc2ccc(NC(=O)Cn3cnnn3)cc2C1=O	-27%	-5%
O=C(NCc1nnnn1-c1ccc(Cl)cc1)c1ccc([N+](=O)[O-])o1	-22%	?
Cc1ccccc1OCC(O)CN(CCO)Cc1ccccc1 (configuration not stated)	i	2%
Cc1csc2nc(COC(=O)COc3ccccc3F)cc(=O)n12	-8%	3%
COc1cc(NC(=O)CSc2nc(-c3cccs3)cc(C(F)(F)F)n2)cc(OC)c1OC	-7%	-18%
OC(Cc1ccnc2ccccc12)C(Cl)(Cl)Cl (configuration not stated)	-14%	-13%
CC(=NN=C(C)c1ccc(O)cc1)c1ccc(O)cc1	-30%	-7%
O=C(CN1CCc2ccccc2C1)c1cccs1	·	-12%
COc1ccc(CN2CCCC(n3cc(C(=O)N4CCCCC4)nn3)C2)c(OC)c1OC (configuration not stated)	-6%	-7%
Cc1ccc(N(CC(=O)Nc2ccc(Br)c(C)c2)S(=O)(=O)c2c(C)[nH]c(=O)[nH]c2=O)cc1	i	-16%
CCOC(=O)c1c(C)[nH]c(CCC(=O)NCc2ccc(OC)c(OC)c2)c1C	-9%	-5%
CCC(C(=O)NC1CCCCC1)n1nc(C)c2sc3ccccc3c2c1=O (configuration not stated)	-22%	-20%
COc1cc(/C=N/NC(=O)COc2c(C)cc([N+](=O)[O-])cc2C)ccc1OC(=O)c1ccccc1Br	-18%	-12%
O=C1C2CCCCN2C(=O)N1CCN1CCN(c2ccc([N+](=O)[O-])cc2)CC1 (configuration not stated)	-11%[1.46 µM]	-13%

# At a glance, 2 of the compounds above.
Molecule	Vaccinia mCherry	VACV Venus inh
Nc1nc2[nH]cc(CCc3ccc(C(=O)N[C@@H](CCC(=O)O)C(=O)O)cc3)c2c(=O)[nH]1	?	-12%
CC(C)Oc1ccc(CNC(=O)Cn2c(=O)c3cccn3c3cccnc32)cc1	-2%	-23%

# Returning to the listing; the six compounds before the break are reprinted first.
Molecule	Vaccinia mCherry	VACV Venus inh
COc1ccc(CN2CCCC(n3cc(C(=O)N4CCCCC4)nn3)C2)c(OC)c1OC (configuration not stated)	-6%	-7%
Cc1ccc(N(CC(=O)Nc2ccc(Br)c(C)c2)S(=O)(=O)c2c(C)[nH]c(=O)[nH]c2=O)cc1	i	-16%
CCOC(=O)c1c(C)[nH]c(CCC(=O)NCc2ccc(OC)c(OC)c2)c1C	-9%	-5%
CCC(C(=O)NC1CCCCC1)n1nc(C)c2sc3ccccc3c2c1=O (configuration not stated)	-22%	-20%
COc1cc(/C=N/NC(=O)COc2c(C)cc([N+](=O)[O-])cc2C)ccc1OC(=O)c1ccccc1Br	-18%	-12%
O=C1C2CCCCN2C(=O)N1CCN1CCN(c2ccc([N+](=O)[O-])cc2)CC1 (configuration not stated)	-11%[1.46 µM]	-13%
O=C1CSC2(C(=O)N(Cc3ccccc3F)c3ccccc32)N1c1ccc(F)cc1 (configuration not stated)	-14%	-1%
CCNc1nc(OC)nc(N2CCC(Cc3ccccc3)CC2)n1	-8%	?
COc1cc(-c2nc(-c3cccc(Cl)c3)c(-c3ccccc3)[nH]2)cc(OC)c1OC	-25%	-14%
Clc1ccc2nc(-c3ccc(N4CCOCC4)cc3)c(Nc3ccccc3)n2c1	-1%	-9%
O=c1cc(CN2CCC3(CC2)OCCO3)c2c(ccc3ccccc32)o1	-7%	-6%
CCOC(=O)c1c(S(=O)(=O)N2CCC(C(=O)Nc3ccc(F)cc3F)CC2)c(C)n(C)c1C	0%	-6%
ON1C2CCCCC2N(O)C1c1ccccc1F (configuration not stated)	·	-17%
COc1ccc2c(CNC3CCCCCC3)c(C(=O)O)n(Cc3ccccc3F)c2c1	i	-14%
O=S(=O)(Nc1ccc2nc(N3CCOCC3)sc2c1)c1ccccc1	i	-11%
COc1cccc(NC(=O)CCNC(=O)Cn2ccc3ccccc3c2=O)c1	-9%&-10%	-6%&-8%
CC(=O)Nc1ccc2nc(-c3ccccn3)[nH]c2c1	?	?
O=S(=O)(Nc1ccc(-c2ccc(N3CCCC3)nn2)cc1)c1ccc(Cl)cc1	i	-10%
CCc1cccc2c(C(=O)CN3C(=O)NC4(CCCCC4)C3=O)c[nH]c12	?	-26%
CN(C)c1ccc(-c2nn3c(-c4cc(-c5ccccc5)n[nH]4)nnc3s2)cc1	?	?
Cc1nn(C)cc1NC(=O)CC12CC3CC(CC(C3)C1)C2	0%	1%
C/C(=N\NC(=O)CSc1ncccn1)c1ccc2c(c1)OCCO2	-11%	-5%
CCN1C(=O)N(S(=O)(=O)c2ccc(C)cc2)[C@@H](c2ccccc2)C(C(=O)OC)=C1C	-10%	?
COC(=O)c1ccc(CSc2nc3ccccc3c(=O)n2N)cc1	-22%	-10%
COc1ccc(C(c2nnnn2Cc2cccs2)N2CCN(c3ccc(F)cc3)CC2)cc1OC (configuration not stated)	-24%	-17%
CCN(C(=O)COC(=O)c1cc(=O)c2ccccc2o1)c1c(N)n(Cc2ccccc2)c(=O)[nH]c1=O	i	-3%
O=C(CCCN1C(=O)c2ccccc2C1=O)Nc1c(C(=O)C2CC2)oc2ccccc12	12%	-3%
CN1CCc2c(sc3c2C(=O)NC(/C=C\c2ccccc2)N3)C1 (configuration not stated)	-4%	19%
O=C(O)CNC1=NCCCCC1	-9%	1%
COc1ccc(S(=O)(=O)N2CCCCCC2)cc1C(=O)N(C)CCOc1ccc(Cl)cc1	-7%	-8%
Cc1oc(-c2ccccc2NC(=O)C2CCC2)nc1CNC(=O)c1cccc(C(F)(F)F)c1	-5%	-5%
CCOc1ccccc1C(=O)NCC(=O)NNC(=O)c1cccc(S(=O)(=O)Nc2ccc(OC)cc2)c1	-15%	-15%
CCC(C(=O)NC(C)(C)C)N(C(=O)c1ccc(Cl)nc1)C1CCCC1 (configuration not stated)	-1%	-11%
NC1=NS(=O)(=O)NC1c1cccc(Cl)c1 (configuration not stated)	-7%[1.46 µM]	-2%
COc1ccccc1NC(=O)c1sc2nc3n(c(=O)c2c1C)N=C(c1cccc(Br)c1)CS3	-1%	8%
O=C1Nc2ccc(S(=O)(=O)N(CCO)CCO)c3cccc1c23	-21%	-5%

# (next part)
# Values in the order – Vaccinia mCherry, VACV Venus inh
> CC(/C=C/c1ccccc1)=N/NC(=O)Cn1nnc(N)n1
    0%, -7%
> Cc1ccc2c(c1)nnn2C1CCN(C(=O)C2CCCCC2)CC1
    i, -17%
> O=C(Nc1ccc2nn(-c3ccccc3)nc2c1)c1ccc2c(c1)OCCO2
    ·, -29%
> Cc1cn2c(=O)c(C(=O)N3CCN(c4ccccc4F)CC3)cnc2s1
    -8%, -9%
> CCC(=O)Nc1ccc(C(=O)CSc2nnc(-c3ccccc3F)n2CCc2ccccc2)cc1
    -11%, -5%
> COc1ccc(-c2cnnn2-c2ccc(NC(=O)c3c(F)cccc3F)cc2)cc1
    -24%, ?
> COc1cc(C=C(C#N)c2ccc([N+](=O)[O-])cc2)ccc1O
    -11%, 137%[activator]
> NC(=O)c1sc2cc(C(F)(F)F)cnc2c1-c1cccs1
    ·, -9%
> COc1ccc(CCNC(=O)c2cn(C)c3ccc(S(=O)(=O)N(C)C)cc3c2=O)cc1OC
    -8%, -1%
> CN1CCSc2ccc(C(=O)NCc3cccc(Br)c3)cc21
    i, 6%
> O=C(COc1cccc2cccnc12)N/N=C1\SCC(=O)N1Cc1ccco1
    ·, -10%
> CCCCNS(=O)(=O)c1ccc2nc(SCC(=O)Nc3ccccc3Cl)[nH]c2c1
    ?, ?
> O=C(COc1ccc(-n2cnnn2)cc1)Nc1ccc(F)cc1
    i, -7%
> CCN1CCC2(CC1)NC(=O)c1ccccc1O2
    i, -6%
> CCOC(=O)C1=C(C)NC(=S)N(C=O)C1c1ccccc1 (configuration not stated)
    -2%, -25%
> COCCC(=O)NNS(=O)(=O)c1ccc(Cl)cc1
    -13%, -6%
> Cc1c(C(=O)N(C)Cc2ccccc2)sc2nc(-c3ccc(F)cc3)cn12
    ?, ?
